2A Renilla = lowers the Renilla signal of an FMDV 2A StopGo reporter; HEK cells with a luciferase reporter of 2A StopGo recoding; Potency, µM (series often up to 57.5 µM), for inactives: top-dose signal change, negative = less light; 0.32% of 120,000 active; AID 1745857; active means well fitted falling curve with a large enough effect; inconclusive means small, poorly fitted or top-dose-only effect; inactive means no such curve, though single readings can be large or run the other way; note: nearly all actives have a fitted effect of over 55% in size; overnight with compound
StopGo FLuc = lowers the firefly signal of an FMDV 2A StopGo reporter. HEK cells with a luciferase reporter of 2A StopGo recoding. Potency, µM (doses to about 57.5 µM), for the others: top-dose signal change, negative = less light. 0.23% of 120,000 active. AID 1745856; active = well fitted falling curve with a large enough effect; inconclusive = small, poorly fitted or top-dose-only effect; inactive = no such curve, though single readings can be large or run the other way; note: nearly all actives have a fitted effect of over 60% in size; overnight with compound
* marks the source's active call; other numbers are inactive results; ? = inconclusive; & = joins results of further samples; [ ] = another dose, or the depositor's remark. % is set by controls: 0 for no effect and ±100 for the full control effect; potency is the fitted concentration of half-maximal effect.

Screens in order: 2A Renilla, StopGo FLuc
> CCS(=O)(=O)Nc1ccc(-c2cn3c(C)csc3n2)cc1
  -7%, ?
> CCC(C)Nc1nc2c(c(=O)n(C)c(=O)n2C)n1Cc1ccc(F)cc1 (stereo not given)
  -4%, -8%
> COc1ccccc1NC(=O)C(=O)NCC(c1ccc2c(c1)OCO2)N1CCOCC1 (stereo not given)
  -8%, -6%
> O=C(O)COCCN1CCN(C(c2ccccc2)c2ccc(Cl)cc2)CC1 (stereo not given)
  -6%, -6%[11.5 µM]
> CCCOc1ccc(/C(O)=C2\C(=O)C(=O)N(c3cc(C)on3)C2c2ccc(O)c(OCC)c2)cc1 (stereo not given)
  -2%, 12%
> CCCCCn1c(=O)[nH]c2cc(C(=O)NCCN(C)CCCC)ccc2c1=O
  -2%, -12%
> Cc1ccc(N2CCN(S(=O)(=O)c3cc(Br)cc4c3N(C(=O)C3CC3)CC4)CC2C)cc1 (stereo not given)
  12%, -17%
> Cc1ccc(/C=C/c2nc3ccccc3n2S(=O)(=O)c2ccc(Br)cc2)cc1
  18%, -37%
> Cc1ccc(Cl)cc1N1CCN(C(=O)c2cn(C)c3ccc(S(=O)(=O)N4CCCC4)cc3c2=O)CC1
  1%, -9%
> Cc1c(CCC(=O)N2CCCC2)c(=O)oc2c(C)c(O)ccc12
  50%[activator], 68%[activator]
> CN(C)S(=O)(=O)N(CC(=O)NCCSCc1cccc(Cl)c1)c1ccccc1
  25%, 5%
> CC(C)Oc1ccc(/C(O)=C2\C(=O)C(=O)N(c3nccs3)C2c2cccc(Br)c2)cc1 (stereo not given)
  16%, 65%[activator]
> Cc1cc(NC(=O)C2=C(O)c3ccccc3S(=O)(=O)N2C)no1
  -7%, -10%
> CCc1cc(CC)c(CO)c(CC)c1/C=N/O
  4%, 18%
> COc1ccccc1NC(=O)c1c(NC(=O)c2ccco2)sc2c1CCC(C(C)(C)C)C2 (stereo not given)
  -7%, -8%
> CCOC(=O)C1C(C)=C/C(=N\O)CC1C(C)C (stereo not given)
  -2%, 15%
> CCOCCCNC(=O)c1ccccc1Sc1ccccc1C#N
  -2%, 24%
> Cc1ccc(C)c(Cn2c(=O)cc(C)c3c(C)nn(-c4cccc(F)c4)c32)c1
  -8%, -3%
> COc1ccccc1-n1c(=O)c2c3c(sc2n(Cc2ccccc2F)c1=O)CN(C(C)=O)CC3
  2%, 0%
> COc1ccc(Nc2c3c(nc4ccc(NC(=O)/C=C/c5cc(OC)c(OC)c(OC)c5)cc24)CCCC3)cc1OC
  -4%, ?

Among those listed so far, eleven contain nitrogen in an aromatic ring.
Screens in order: 2A Renilla, StopGo FLuc
> CCS(=O)(=O)Nc1ccc(-c2cn3c(C)csc3n2)cc1
  -7%, ?
> CCC(C)Nc1nc2c(c(=O)n(C)c(=O)n2C)n1Cc1ccc(F)cc1 (stereo not given)
  -4%, -8%
> CCCOc1ccc(/C(O)=C2\C(=O)C(=O)N(c3cc(C)on3)C2c2ccc(O)c(OCC)c2)cc1 (stereo not given)
  -2%, 12%
> CCCCCn1c(=O)[nH]c2cc(C(=O)NCCN(C)CCCC)ccc2c1=O
  -2%, -12%
> Cc1ccc(/C=C/c2nc3ccccc3n2S(=O)(=O)c2ccc(Br)cc2)cc1
  18%, -37%
> Cc1ccc(Cl)cc1N1CCN(C(=O)c2cn(C)c3ccc(S(=O)(=O)N4CCCC4)cc3c2=O)CC1
  1%, -9%
> CC(C)Oc1ccc(/C(O)=C2\C(=O)C(=O)N(c3nccs3)C2c2cccc(Br)c2)cc1 (stereo not given)
  16%, 65%[activator]
> Cc1cc(NC(=O)C2=C(O)c3ccccc3S(=O)(=O)N2C)no1
  -7%, -10%
> Cc1ccc(C)c(Cn2c(=O)cc(C)c3c(C)nn(-c4cccc(F)c4)c32)c1
  -8%, -3%
> COc1ccccc1-n1c(=O)c2c3c(sc2n(Cc2ccccc2F)c1=O)CN(C(C)=O)CC3
  2%, 0%
> COc1ccc(Nc2c3c(nc4ccc(NC(=O)/C=C/c5cc(OC)c(OC)c(OC)c5)cc24)CCCC3)cc1OC
  -4%, ?

Carrying on.
Screens in order: 2A Renilla, StopGo FLuc
> COc1cc(OC)cc(-c2nc3n(n2)C(c2ccccc2)C(C(N)=O)=C(C)N3)c1 (stereo not given)
  -6%, 1%
> CN(CC(=O)NC(C)(C)C)C(=O)/C=C/c1ccc(C#N)cc1
  3%, 0%
> CC(C)C(=O)Nc1ccc2nc(SCC(=O)N3CCc4ccccc43)sc2c1
  87%[activator], -1%
> CN(C)S(=O)(=O)c1ccc(NC(=O)COc2ncnc3ccc(Br)cc23)cc1
  -6%, -1%
> C=C(C)Cn1c(SCC(=O)OCc2ccccc2)nc2c1c(=O)[nH]c(=O)n2C
  -2%, -4%
> Cc1ccc(S(=O)(=O)c2cn(CC(=O)Nc3ccc4c(c3)OCO4)c3ccccc3c2=O)cc1C
  56%[activator], -8%
> CCN1CCN(Cc2c(O)ccc3c(=O)c(Oc4ccccc4Cl)c(C(F)(F)F)oc23)CC1
  -15%, -14%
> CC1CCN(C(=O)c2cc(-c3ccncc3)nc3ccccc23)CC1
  29%, 15%
> N#Cc1ccc(OCCOc2cccc(C#N)c2)cc1
  16%, 0%
> CCOC(=O)c1c(C)n(CC)c2ccc(OC(=O)c3ccccc3C)cc12
  2%, 9%
> C=CCN(CC#Cc1ccc(C)cc1)Cc1ccc(OC)cc1OC
  6%, 15%
> O=C(Nc1cccc(C(F)(F)F)c1)C1CCCN(S(=O)(=O)c2cccc3nonc23)C1 (stereo not given)
  -11%, ?
> O=C(Nc1cccc(OCC2CCCO2)c1)C1CCC1 (stereo not given)
  36%, 77%[activator]
> O=C(NCC(c1cccnc1)N1CCc2ccccc2C1)C(=O)Nc1ccc(F)cc1F (stereo not given)
  -16%, -29%
> CCOC(=O)c1c(S(=O)(=O)N2CCCC(C(=O)NCc3ccccc3OC)C2)c(C)n(C)c1C (stereo not given)
  13%, -3%
> Cc1cc(C)c(NS(=O)(=O)c2ccc(-c3cnc(C4CC4)o3)cc2)c(C)c1
  ?, ?
> CCOC(=O)CCNC(=O)N1CCN(S(=O)(=O)c2ccc3c(ccn3C)c2)CC1
  0%, -3%
> CCN(C(=O)Cc1coc2ccc(C)cc12)c1ccccc1
  21%, 9%
> O=C(Cc1c[nH]c2ccccc12)Nc1ccc(F)c(F)c1
  0%, 0%
> Cc1ccc(Cl)cc1NC(=O)CCc1c(C)nc2c3cccnc3nn2c1C
  -11%, 11%
> O=C(Cn1ccc2ccc(Br)cc21)Nc1nccs1
  -10%, -4%
> COC(=O)c1cnn(-c2ccc(C(=O)Nc3cc(Cl)ccc3C)cc2)c1N
  -1%, 2%
> CC1CCc2nc3ccccc3c(C(=O)Nc3ccc(F)c(F)c3)c2C1 (stereo not given)
  -12%[1.06 µM], 0%
> COc1cc(CNc2ccc3[nH]c(=O)[nH]c3c2)cc(Cl)c1OCc1ccc(F)cc1
  -9%, 3%
> Cc1cccc(OCCC(=O)OCC(=O)c2cc3ccccc3o2)c1
  24%, 12%
> CCOc1ccc(CCNC(=O)CCc2c(C)nc3cc(-c4ccccc4OC)nn3c2C)cc1
  -6%, -16%
> CCOP(=O)(OCC)c1nc(Cc2ccccc2)oc1NCc1ccc2c(c1)OCO2
  21%, 2%
> CC(C)Cn1nnnc1SCCS(=O)(=O)c1cc(Cl)ccc1Cl
  -9%, -20%
> Cc1c(Cc2ccccc2)c(=O)oc2cc3c(cc12)CCC1(CCCCC1)O3
  -6%, 2%
> Nc1nc(NCc2ccc(Cl)cc2)c2[nH]cnc2n1
  -10%, 13%
> O=c1[nH]c(CN2CCCCCCC2)nc2c(Br)cc(Br)cc12
  -17%, -14%
> O=C(NCCCCc1ccccc1)c1nn(-c2ccccc2)nc1CO
  -6%, -11%
> CCOC(=O)C1CCN(C(=O)c2ccccc2NC(=O)c2nsc3ccccc23)CC1
  9%, ?
> CNC(=O)NC(=O)CN(CCC(C)C)C1CC1
  35%[activator], 40%[activator]
> Cc1cc(NC(=O)N(Cc2ccco2)Cc2cccs2)no1
  -3%, 5%
> CCN(Cc1ccccc1)C(=O)CCS(=O)(=O)c1cc2c(cc1Cl)NC(=O)CO2
  -4%, -14%
> COc1ccc(CN2CCN(C(=O)c3cc4ccc(OC)cc4nc3C)CC2)cc1
  ?, ?
> CCOC(=O)c1ccccc1NC(=O)Cn1c(=O)n(Cc2ccc(C)cc2)c(=O)c2ccccc21
  10%, 23%
> CCCCNC(=S)NCCCC
  66%[activator], 24%
> Cc1cc(=O)n(CC(=O)NC(C)c2ccccc2)c2c1c(C)nn2C (stereo not given)
  ?, ?
> Cc1ccc2c(c1)cc(C(=O)N1CCN(C)CC1)n2C
  3%, 96%[activator]
> Cn1c(=O)c2c(ncn2CCC(=O)Nc2ccc(F)c(Cl)c2)n(C)c1=O
  0%, -1%
> Fc1cccc(NCc2ccccc2-c2nnc(-c3ccccc3Cl)o2)c1
  -5%, 47%[activator]
> COc1ccc(OCCCC(=O)Nc2ccc3c(C)cc(=O)oc3c2)cc1
  -5%, 14%
> Cc1ccc(CNC(=O)CN(C)S(=O)(=O)c2ccc3c(c2)c(=O)n(C)c(=O)n3C)cc1
  -10%, -6%
> CSc1ccc(CCNC(=O)CCc2c(C)nc3c(c(C)nn3-c3ccc(C)c(C)c3)c2C)cc1
  -10%, 0%
> CNS(=O)(=O)c1cn(CC(=O)N2CCN(c3ccc(C(C)=O)cc3)CC2)cc1S(=O)(=O)NC
  22%, 74%[activator]
> O=C1CCCc2cc(S(=O)(=O)NCC3CCC(C(=O)NCc4ccccc4Cl)CC3)ccc2N1 (stereo not given)
  50%[activator], 7%
> Cc1ccc(C(=O)c2ccc(-c3ccccc3)cc2)cc1
  -1%, 4%
> Cc1cccc(C)c1-n1ncc(C(=O)NCCN2CCN(C)CC2)c1C1CCN(C(=O)OC(C)(C)C)CC1
  -7%, -18%
> CCCSc1ncc(Cl)c(C(=O)Nc2cccc(C(F)(F)F)c2)n1
  10%, 0%
> COc1ccc(CCNC(=O)c2c(C)oc3ncn(C)c(=O)c23)c(OC)c1
  -11%, -3%
> CSc1ccc(CCNC(=O)c2ccc3c(c2)nc2n3CCCCC2)cc1
  ?, ?
> Cc1c(NC(=O)c2nn(C)c(=O)c3ccccc23)c(=O)n(-c2ccccc2)n1C
  0%, 3%
> COc1ccc(-c2nnc3c(C(=O)Nc4cccc5ccccc45)cccn23)cc1
  12%, 40%[activator]
> Cn1c(N)c(C(=O)COC(=O)c2cc(-c3ccccc3)nc3ccccc23)c(=O)n(C)c1=O
  -6%, 5%
> O=C(C1CC1)N(Cc1ccc2c(c1)CN(S(=O)(=O)c1ccc(F)c(F)c1)CCO2)c1ccccc1
  ?, ?
> Cc1ccccc1-c1nnn(Cc2cc(Cl)c3c(c2)OCCCO3)n1
  -19%, 105%[activator]
> COc1ccc(-c2c(C)c3cc(OS(C)(=O)=O)ccc3oc2=O)cc1OC
  7%, 14%
> COc1cc(OC)c(NC(=O)c2sc3nc4n(c(=O)c3c2C)CCCC4)cc1Cl
  -3%, 1%

Copied from the list:
Cc1ccccc1-c1nnn(Cc2cc(Cl)c3c(c2)OCCCO3)n1 in StopGo FLuc = 105%[activator]
COc1ccc(-c2c(C)c3cc(OS(C)(=O)=O)ccc3oc2=O)cc1OC in 2A Renilla = 7%

Further entries.
Screens in order: 2A Renilla, StopGo FLuc
> COC(=O)c1ccc(COC(=O)/C=C/c2cccs2)o1
  -4%[1.06 µM], 18%
> CC(=O)Nc1nc2n(n1)C(c1ccc(Cl)cc1)C=C(c1ccc(Cl)cc1)N2 (stereo not given)
  -14%, -5%
> Cc1ccccc1C1CC(=O)NC(SCC(=O)Nc2cccc(C(F)(F)F)c2)=C1C#N (stereo not given)
  11%, -6%
> CCOC(=O)c1c(NC(=O)c2cc3ccccc3oc2=O)sc(C)c1CC
  -3%, 9%
> Cc1cc(C)cc(NC(=O)c2cc(-c3ccncc3)nc3ccccc23)c1
  -13%, -8%
> CCOC(=O)c1sc2ccccc2c1S(=O)(=O)NCc1ccc(F)cc1
  -33%, -18%
> O=C(CSc1nccn1C1CCCC1)Nc1ccccc1
  -10%, 46%[activator]
> Cc1ccc(NC(=O)C2C3CC/C=C\CC/C=C/CCC32)cc1C (stereo not given)
  0%, 17%
> CC(C)(C)C1CCC(=NNC(=O)C2CC2)CC1 (stereo not given)
  -1%, 0%
> CC(=O)c1nnn(-c2nc(N3CCCCC3)nc(N3CCOCC3)n2)c1C
  -1%, -3%
> Cn1c(=O)c2c(nc(NCc3ccc4c(c3)OCO4)n2Cc2ccccc2Br)n(C)c1=O
  -5%, 0%
> Cc1nc2cc(F)ccc2cc1C(=O)NCC1COc2ccccc2O1 (stereo not given)
  -31%, -12%
> O=C(Cn1nnc(-c2ccsc2)n1)N1CCC(c2nc3ccccc3s2)CC1
  -13%, -15%
> N#Cc1ccc(C(=O)NC2(c3ccc(Br)cc3)CC2)cc1
  -1%, -6%
> CCOC(=O)c1cc(-c2ccncc2)nc2ccccc12
  -1%, -5%
> CC(C)c1ccc(/C=N/c2sc3c(c2C#N)CCCC3)cc1
  7%, 20%
> Cc1cc(NC(=O)N2CCC(CN3CCOCC3)CC2)ccc1Br
  ?, -18%
> Fc1ccc(-c2cc(C(F)(F)F)nc(NCc3ccccc3)n2)cc1
  -5%, -9%
> Cc1ccc(Cn2c(C)c(CNCCCc3ccccc3)c(C(=O)O)c2C)cc1
  33%[activator], -20%
> CCc1noc(C(C)N2CCN(c3oc(C4CC4)nc3C#N)CC2)n1 (stereo not given)
  -9%, -14%
> COc1ccc(Oc2cc(NC(=O)C3CCN(S(C)(=O)=O)CC3)ccc2OC)cc1
  -6%, -1%
> CC(C)Sc1ncc(Cl)c(C(=O)Nc2ccc(S(=O)(=O)N3CCCCC3C)cc2)n1 (stereo not given)
  5%&106%, 9%&-16%
> O=S1(=O)Cc2c(nc3ccccc3c2-c2ccccc2)-c2ccccc21
  10%, -6%

An excerpt (hit frequency here may not be typical).
